# NPYLR7 agonist: mosquito NPYLR7 agonism; HEK293T NPYLR7/Galpha15, GCaMP6s calcium fluorescence; activation, % at 10 µM; hit rate 0.15% among 270,000; in the data active = activation above about 40%;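 note: 0% = vehicle and 100% = reference agonist at the receptor; some compounds past the cut are filed as inactive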
# NPYLR7 agonist max-min: recorded beside NPYLR7 agonist, whose call it bears; activation, %; measured here: Max-Min RFU normalised activation; some inactives read as strong as hits;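 span of the calcium signal over five minutes; 0% = vehicle and 100% = native peptide agonist; compound fluorescence can raise it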
# * marks the source's active call; other numbers are inactive results. Not all compounds are listed, so the mix of outcomes need not match the whole.
SMILES,NPYLR7 agonist,NPYLR7 agonist max-min
CCc1c(C)nc(-c2ccc(C(F)(F)F)cc2)nc1N1CCN(C(=O)Nc2ccccc2OC)CC1,0,4
CN1CCN(c2cc(-c3ccc(Oc4ccccc4)cc3)nc3ccnn23)CC1,2,-2
Cc1c(C)n2c3c(=O)n(CCN4CCCCC4)c(=O)n(C)c3nc2n1Cc1ccco1,2,0
CC(c1cccc(-c2nc(C(N)=O)cs2)c1)N1CCCC1 (stereo not drawn),7,13
Cc1[nH]c2ccc(Cl)cc2c1CCn1ccnc1-c1nccn1C,7,4
CCOC(=O)c1[nH]c2ccccc2c1CN1CCN(c2ncc(F)cn2)CC1,-3,-9
CCCCSc1nc2c(c(=O)[nH]c(=O)n2C)n1CCOC,7,5
Cc1nc2ccc(C(=O)NCCN3CCOCC3)cn2c1N(C)CC1CCCCC1,-7,-10
COc1cc(C(=O)N2CCN(Cc3cccc(-c4noc(-c5ccco5)n4)c3)CC2)ccc1F,4,-1
Cc1nc2c(C)cccc2cc1C(=O)N1CCC2(CCN(C)CC2)C1,1,-1
Cn1ccnc1CN1CCN(Cc2nc(-c3ccccc3)no2)CC1,7,2
Cc1csc(Nc2ccc(N)cc2)n1,3,-1
COc1cn(CC(=O)Nc2ccc(C)cc2)c(CSc2nncn2C)cc1=O,-7,-11
CC1CCc2c(sc3nc(Cc4ccccc4)nc(N4CCN(C(=O)COCc5ccccc5)CC4)c23)C1 (stereo not drawn),-13,-10
Cc1nn(CC(=O)Nc2cccc(F)c2)c(C)c1[N+](=O)[O-],-5,-9
CC(C)n1nccc1-c1nnc(NC(=O)CCS(=O)(=O)c2ccccc2)o1,-7,-5
CC(CC(=O)NC(C)C12CC3CC(CC(C3)C1)C2)c1ccccc1 (stereo not drawn),2,-3
CCOC(=O)c1cc(-c2ccc(N3CCN(C(=O)c4c(C)noc4C)CC3)cc2)n(-c2ccc(F)cc2)n1,24,13
CCCCc1ccc(-c2ccc(-n3cncc3C(=O)NCC3COC(C)(C)O3)cc2)cc1 (stereo not drawn),11,21
O=C(COc1nsnc1N1CCOCC1)N1CCOCC1,0,-2
CCCC(C)c1n[nH]c2c1CN(Cc1ccc3c(c1)OCCN3C)CC2 (stereo not drawn),0,-2
O=S(=O)(NCc1ccco1)c1ccc(-n2cccn2)cc1,1,-2
COc1ccc(CCN2C(=O)N(C)C(=O)C23CCN(CCC(C)c2ccc(C)o2)CC3)cc1 (stereo not drawn),8,1
Cc1ccc(C)c(OCC(=O)N(C)Cc2cc(C(C)C)on2)c1C,2,3
Cc1c(C(=O)N2CCCC2C)cnc2c(-c3ccc(F)cc3)cnn12 (stereo not drawn),2,-10
Cc1cc(-n2c(C)cc(C(=O)Cn3ncc(Cl)c(Cl)c3=O)c2C)no1,-1,4
CCN(CC)S(=O)(=O)c1ccc2c(c1)N(Cc1cccc(F)c1)C1CCCN21 (stereo not drawn),-2,-3
CCc1cc(Oc2cccc(C)c2C)nc(SCc2cc(OC)cc(OC)c2)n1,22,24
CN1C[C@H](NC(=O)c2cccc(Cn3cccn3)c2)C[C@H]1CO,-3,-3
Cc1nc(COC(=O)C(C)Oc2ccccc2C(F)(F)F)oc1C (stereo not drawn),10,5
Cc1nc(SCC(=O)c2ccc([N+](=O)[O-])cc2)c(C#N)c(C)c1C,10,8
C=C1CC(OC(=O)CC)C(C)(C)CC2=C(C)CCC12 (stereo not drawn),-15,-21
Cc1nc2cc3c(cc2n1CC(O)c1cc(Cl)ccc1Cl)OCCO3 (stereo not drawn),2,5
CNC(=O)NC(=O)CCN1CCCN(c2ccc(C)nn2)CC1,2,1
Cc1cccc(C(=O)Nc2cccc(NC(=O)Cc3cccnc3)c2)c1,1,-5
O=C(Nc1nccs1)c1ccc(COc2ccc(F)cc2)o1,-3,-4
Cc1cccn2c(=O)cc(CSc3nnc(-c4cc5c(s4)CCC(C)C5)o3)nc12 (stereo not drawn),0,-2
COC(=O)c1ccc(C(=O)N2CCOC(Cc3cccc(F)c3)C2)cc1 (stereo not drawn),18,6
CN(C)CCn1c2c(c(SCC(=O)N3CCCc4ccccc43)nc1=O)CCCC2,0,4
CN(C(=O)Cn1nc(-c2cccs2)c2sc(N3CCCCC3)nc2c1=O)c1ccccc1,-3,-9
Cc1c(NC(=S)NN=Cc2ccc(Br)cc2)c(=O)n(-c2ccccc2)n1C,-11,-9
Cc1cccc(Cn2c(=O)c(C(=O)N3CCCC3)nn(-c3ccc(C)c(Cl)c3)c2=O)c1,18,18
COCCN(CC(=O)Nc1nc(CC(=O)N2CC3(C)CC2CC(C)(C)C3)cs1)C(=O)c1ccccc1Cl (stereo not drawn),-5,4
O=C(NCc1ccncc1)c1csc(CSc2nnc(Cc3ccccc3)n2-c2cccc(Cl)c2)n1,-5,5
C#CCNC(=O)c1cn2ccccc2n1,8,2
Cc1nc(Oc2ccc(Br)cc2F)c2c(C)c(C)sc2n1,3,1
COc1ccc(C2=NN(C(=O)CN3CCc4ccccc4C3)C(c3ccco3)C2)cc1 (stereo not drawn),-1,7
Cc1noc(C)c1CNC(=O)c1csc(CN(C)C)n1,6,5
COC1CN(S(=O)(=O)c2ccccc2)CCC(=O)N(C)c2ccccc21 (stereo not drawn),1,6
FC(F)(F)c1ccccc1Cn1ccnc1CNCc1ccco1,-15,-8
CC1=NC2=C(C(=O)CCC2)C(c2cccc(Oc3ccccc3)c2)C1C#N (stereo not drawn),-11,-17
CC1CC(N2CCCC2Cn2cncn2)C(=O)O1 (stereo not drawn),0,-8
COc1ccc(CNC(=O)Nc2sc(C)nc2C)cc1O,0,12
CC1(C(=O)N2CCCC2)CCN1C(=O)CCCc1cccs1 (stereo not drawn),7,5
Cn1c(=O)c2c(ncn2CC(=O)c2ccc(Br)s2)n(C)c1=O,-5,-2
Cc1cccc2[nH]cc(-c3csc(NCC(F)(F)F)n3)c12,19,15
O=C(Nc1nc(-c2ccncc2)cs1)c1cc(F)c(F)cc1Cl,-1,-4
Cc1c(NC(C)C(C)C)cccc1C(=O)OCC(N)=O (stereo not drawn),-1,-3
O=c1c2ccccc2oc2nc3ccc(CN4CCOCC4)cc3cc12,-2,-4
CCOC(=O)c1ccc(N2C(=O)CC3CS(=O)(=O)CC32)cc1 (stereo not drawn),-1,8
# Later entries
SMILES,NPYLR7 agonist,NPYLR7 agonist max-min
CCS(=O)(=O)Oc1ccc(CN(CC(C)C)S(=O)(=O)c2ccc(F)cc2)cc1,-10,-15
Fc1ccc(C2CC(c3ccccc3F)n3ncnc3N2)cc1 (stereo not drawn),9,4
C=C1CCC(C2CC(=O)OC2=O)C(=O)CCC2C1CC2(C)C (stereo not drawn),-10,-12
c1ccc(-c2nc3c(c(NCc4cn5ccsc5n4)n2)CCNC3)cc1,17,11
COc1ccc(C(=O)N(CCN(C)C)Cc2c(-c3cccc(C)c3)noc2N2CCOCC2)cc1,9,9
Cc1ccc(CN(Cc2ccccc2)C(=O)CN(C(=O)c2ccc(-c3ccccc3)cc2)C2CCCCC2)s1,24,30
CCN1CCN(C2(C(=O)NCCc3ccccc3F)Cc3ccccc3C2)CC1,4,-1
CC(C)(O)CSCCNC(=O)C1CC(=O)N(c2cccc3ccccc23)C1 (stereo not drawn),2,1
CN(c1nc2nonc2nc1NC1CC1)C1CCOC1 (stereo not drawn),12,5
CN(C)c1ccnc(NCCc2cccc(Cl)c2)n1,7,7
COc1ccc(OCCNC(=O)C2(C)CCN2Cc2ccc(-c3ccccn3)cc2)cc1 (stereo not drawn),4,-2
CCOC(=O)[C@H]1[C@@H](O)C(=O)N(C)C12CCN(C(=O)c1cccc(C#N)c1)CC2,25,24

# 13 compounds from above, ordered by number of heavy atoms, descending:
SMILES,NPYLR7 agonist,NPYLR7 agonist max-min
Cc1ccc(CN(Cc2ccccc2)C(=O)CN(C(=O)c2ccc(-c3ccccc3)cc2)C2CCCCC2)s1,24,30
COc1ccc(C(=O)N(CCN(C)C)Cc2c(-c3cccc(C)c3)noc2N2CCOCC2)cc1,9,9
COc1ccc(OCCNC(=O)C2(C)CCN2Cc2ccc(-c3ccccn3)cc2)cc1 (stereo not drawn),4,-2
CCN1CCN(C2(C(=O)NCCc3ccccc3F)Cc3ccccc3C2)CC1,4,-1
CCS(=O)(=O)Oc1ccc(CN(CC(C)C)S(=O)(=O)c2ccc(F)cc2)cc1,-10,-15
CC(C)(O)CSCCNC(=O)C1CC(=O)N(c2cccc3ccccc23)C1 (stereo not drawn),2,1
O=c1c2ccccc2oc2nc3ccc(CN4CCOCC4)cc3cc12,-2,-4
O=C(Nc1nc(-c2ccncc2)cs1)c1cc(F)c(F)cc1Cl,-1,-4
Cn1c(=O)c2c(ncn2CC(=O)c2ccc(Br)s2)n(C)c1=O,-5,-2
Cc1cccc2[nH]cc(-c3csc(NCC(F)(F)F)n3)c12,19,15
Cc1c(NC(C)C(C)C)cccc1C(=O)OCC(N)=O (stereo not drawn),-1,-3
CN(C)c1ccnc(NCCc2cccc(Cl)c2)n1,7,7
CC1CC(N2CCCC2Cn2cncn2)C(=O)O1 (stereo not drawn),0,-8

# (next part)
SMILES,NPYLR7 agonist,NPYLR7 agonist max-min
Cc1ccc(C(=O)Nc2ccc(N3CCN(C(=O)CCN4CCCCC4)CC3)nc2)cc1,6,10
O=C(N[C@H](CO)Cc1ccccc1)c1cccnc1Nc1cccc(C(F)(F)F)c1,0,-4
COCCn1cc(NC(=O)NCc2ccccc2OC)c2ccccc21,-1,-2
Cn1nc(C(C)(C)C)cc1C(=O)N1CCN(C(c2ccc(Cl)cc2)c2ccc(Cl)cc2)CC1,16,0
O=C(c1cc(F)c(F)cc1F)N1CCN(C(c2ccccc2)c2ccc(Br)cc2)CC1 (stereo not drawn),21,8
Cc1ccccc1Cn1c(=O)c2c(nc3n(CCO)c(C)cn23)n(C)c1=O,9,18
Cc1ccc(NC(=O)CSc2nncc(=O)[nH]2)c(C)c1,-2,-3
CC(=O)C(C#N)P(C)(=O)OC(C)C (stereo not drawn),3,5
CC(CCc1ccccc1)NC(=O)c1csc(CSc2nnc(Cc3ccccc3)n2-c2ccccc2)n1 (stereo not drawn),-4,-1
COc1cccc(CNC(=O)c2nc(C)ncc2Cl)c1,-8,-8
CCCSc1ncc(CN2CCC(CN)C2)cn1 (stereo not drawn),3,22
C=C(C)Cn1c(C(=O)N2CCN(C(=O)Cc3cccs3)C(C)C2)cc2ccoc21 (stereo not drawn),26,34
CCc1ccc(N2C(=O)C3N=NN(Cc4ccc(C)cc4)C3C2=O)cc1 (stereo not drawn),5,-5
CC(CNS(=O)(=O)NCc1ccccc1)Oc1cccnc1 (stereo not drawn),-3,-4
Cc1nc2cc(OCc3cc(C(=O)NC(C)c4nccs4)no3)ccc2s1 (stereo not drawn),6,2
CCNC(=O)Cn1c(CO)cnc1SCC(=O)Nc1ccccc1C,12,10
C=CCOCC(O)CN(CCc1nc(-c2ccc(C)cc2)no1)Cc1ccco1 (stereo not drawn),5,3
COc1ccc(-c2cn[nH]c2-c2ccc(OCCN3CCC(C(N)=O)CC3)cc2O)cc1,-3,-3
O=C1NC2(CCCCCC2)C(=O)N1CN1CCCC1c1cccs1 (stereo not drawn),1,6
Cc1cc(C)c(-c2nccn2Cc2cccnc2)cc1Cn1cncn1,1,-2
Cc1cc(C)cc(COc2coc(CN3CCN(C(=O)c4cc(C(C)(C)C)oc4C)CC3)cc2=O)c1,2,1
CCC(C(=O)NCc1ccc(-c2ncc(-c3ccc(F)cc3)[nH]2)cc1)c1ccccc1 (stereo not drawn),34,36
O=C(NCc1ccc(F)c(Cl)c1)NCc1ccccn1,6,4
N=C1C(c2nc3ccccc3s2)C(=O)CN1N=C1C(=O)Nc2ccccc21 (stereo not drawn),0,-3
COc1ccc2cc(C(=O)C3CCCN(C(=O)c4sc(C)nc4C)C3)ccc2c1 (stereo not drawn),11,-1
Cc1ccc(S(=O)(=O)Nc2ccc(N3CCNC3=O)cc2)cc1C(=O)O,26,22
Cn1cc(CN2CCN(C(=O)c3ccco3)CC2)c(-c2ccc3c(c2)OCCO3)n1,-8,-7
Nc1nonc1-c1noc(-c2ccccc2Br)n1,3,0
CC(=O)Cn1c(=O)c2c(nc3n(-c4ccc(Br)cc4)c(C)cn23)n(C)c1=O,-2,24
O=S(=O)(Nc1ccc(SC(F)F)cc1)c1ccc(F)c(F)c1,2,0
CCCCN(CC(=O)N1c2ccccc2-n2cccc2C1c1ccc(Cl)cc1)C(=O)Nc1cccc(Cl)c1Cl (stereo not drawn),16,22
CC(C)=C(C#N)n1cnc2ccccc21,-2,-3
O=C(Cc1ccc(C(F)(F)F)cc1)N1CC[C@@H](O)C1,9,7
Oc1ccccc1CN1CCCn2cccc2C1c1cccc(F)c1 (stereo not drawn),-4,-2
Cc1c(C#N)c(NC(=O)CN2CCCCC2)n(Cc2ccco2)c1C,10,6
CC(C)Cc1cc(C(=O)N2CCc3c(c(C(=O)N(C)Cc4cscn4)nn3CC3CC3)C2)no1,6,-5
O=C(O)COc1ccc(/C=N\Nc2nc(Nc3ccccc3)nc(N3CCCCC3)n2)cc1,-2,-7
CCCCCCCCNS(=O)(=O)c1ccccc1C,5,8
CCN(C(=O)CN1CCN(S(=O)(=O)c2cccc(Cl)c2)CC1)C1CCCCC1,-6,-6
c1ccc(N=c2scc(-c3ccccc3)s2)cc1,2,-2
O=C(NCc1ccncc1)c1nn(-c2cccc(Cl)c2)c(=O)n(Cc2ccccc2F)c1=O,-9,-9
COc1ccc(CCN(C)c2cc(C(C)(C)C)nc(SCc3cccc(C(=O)N4CCCC4)c3)n2)cc1OC,6,5
O=C(OCC(=O)N1CCCCCC1)c1cc(=O)[nH]c(=O)[nH]1,13,12

# Source: PubChem
